Compound activity deposited in PubChem BioAssay by National Center for Advancing Translational Sciences (NCATS).
VACV Venus inh – vaccinia inhibition (Venus reporter). 330,000 compounds, 0.46% hits. Potency, µM (series often up to 36.5 µM), for the others: at the top dose activity change, negative = inhibition, actives largely listed as inhibitors. Vaccinia virus Venus reporter expression, fluorescence; active means well fitted inhibition curve with a large enough effect; inconclusive means small, poorly fitted or top-dose-only effect; inactive means no such curve, though single readings can be large or run the other way; tested in A549 cells; further: nearly all actives have a fitted effect of over 30% in size; inactives centre near -10
Vaccinia mCherry – vaccinia inhibition (mCherry reporter) | Vaccinia virus mCherry reporter infection, fluorescence; about a quarter of the inactives have no number | Potency, µM (titrated, usually from 36.5 µM), without a hit: top-dose activity change, negative = inhibition, hits mostly inhibitors | 310,000 compounds, 0.63% hits; active = well fitted inhibition curve with a large enough effect; inconclusive = small, poorly fitted or top-dose-only effect; inactive = no such curve, though single readings can be large or run the other way; tested in A549 cells; further: nearly all actives have a fitted effect of over 35% in size; inactives centre near -10
* hit, by the source's call; i = inactive; u = inconclusive; x = no result given; [ ] = another dose, or the depositor's remark. On the % scale 0 is the no-effect control and ±100 the full control effect; potency means the concentration at half of the fitted maximal effect.

smiles	VACV Venus inh	Vaccinia mCherry
O=C(Nc1n[nH]c(C(F)(F)F)n1)C1CC1	-9%	-13%
CCCC(C(=O)O)n1c(O)c(C=C2N=c3ccccc3=N2)sc1=S (configuration not stated)	-6%	i
Cc1ccc(S(N)(=O)=O)cc1NC(=O)/C=C/c1cccs1	-13%	x
CC(C)CC(C(=O)OCC(=O)c1c(N)n(C)c(=O)n(C)c1=O)N1C(=O)c2ccccc2C1=O (configuration not stated)	-18%	-17%
Cc1n[nH]c(C)c1S(=O)(=O)N1CCCCCC1	3%	x
Cc1nn(-c2ccccc2)c2c1C(=O)N(Cc1ccccc1)C(=O)C(C)(C)C2	-15%	x
Cn1ccsc1=NC(=O)c1ccc(S(=O)(=O)C(F)F)cc1	2%	-2%
O=C(CC(=O)c1ccccc1)Nc1cc(C(F)(F)F)ccc1Cl	-1%	-3%
Nc1cc(=O)[nH]n1C1CCCC1	-6%	i
COc1ccccc1OCCn1ccnc1	-13%	-26%
O=C(CNC(=O)c1ccc(Cl)cc1Cl)OCN1C(=O)c2ccccc2C1=O	-5%	-9%
CCCCn1cnc2c(c(-c3ccccc3)c(-c3ccccc3)n2Cc2ccco2)c1=N	-20%	i
Cc1csc(SCc2nc3scc(-c4ccccc4)c3c(=O)[nH]2)n1	0%	-15%
O=C(Cn1c(=O)n(Cc2ccc3c(c2)OCO3)c(=O)c2ccccc21)Nc1cccc(Cl)c1	-13%	-25%
CCc1ccc(NCc2cc3cc4c(cc3n(CC(=O)Nc3ccc(F)cc3)c2=O)OCCO4)cc1	-4%	-8%
Cc1c(C(=O)NCc2ccc(Cl)cc2)oc2ccc3c(c12)C(=O)CC(C)(C)O3	-23%	-18%
CC1(C)Cc2c(sc(NC(=O)COc3ccc(Cl)cc3)c2C(N)=O)C(C)(C)N1	-11%	-1%
O=[N+]([O-])c1cc(/C=N/n2c(-c3cccnc3)n[nH]c2=S)ccc1Cl	-8%	i
Cc1ccc(-c2nc(CS(=O)CC(=O)NCc3ccc4c(c3)OCO4)c(C)o2)cc1 (configuration not stated)	-27%	-20%
O=C(CCNC(=O)c1ccccc1Cl)Nc1nc(-c2ccccc2Cl)cs1	-9%	i
O=C(Nc1nnc([C@@H]2C[C@H](O)[C@@H](CO)O2)s1)c1c(F)cccc1F	-4%	i
CCCCc1cc(=O)oc2cc(C)c3c(C(C)(C)C)coc3c12	2%	-5%
COc1ccccc1N1CCN(c2ncnc3c2cnn3-c2cc(Cl)ccc2C)CC1	10µM*	10µM*
COc1ccc(C(=O)NNC2=NC(C)(C)Cc3ccccc32)cc1	-1%	i
O=C1CCC[C@@H]2C[C@@]3(C[C@@H]4CCN1[C@H]24)Nc1cc([N+](=O)[O-])ccc1NC3=NCc1ccccc1	-29%	-11%
C[C@H](CO)N1C[C@H](C)[C@@H](CN(C)S(C)(=O)=O)Oc2ccc(NC(=O)Nc3ccccc3)cc2C1=O	-10%	-13%
NC(=O)c1cnn(C2CCS(=O)(=O)C2)c1 (configuration not stated)	-3%	i
Cc1cc(C)cc(NC(=O)CNC(c2ccccc2)c2ccccc2)c1	-20%	-20%
COc1ccc(C(=O)Nc2ccc(NC(=O)c3cccs3)c(OC)c2)cc1Cl	-21%	-11%
Cc1ccc(C(=O)O)cc1NC(=S)NC(=O)c1ccc(-c2ccccc2)cc1	-9%	i
CC(=O)NCCc1ccc(C(=O)COC(=O)c2cccn2C)cc1	-13%	-15%
COc1ccc(-c2nc(N3CCN(C)CC3)sc2-c2ccc(OC)cc2)cc1	-23%	u
O=C(O[C@H]1[C@H](Cc2ccccc2)NS(=O)(=O)[C@H]2CC3C=C[C@]12O3)c1ccc(Br)cc1	-22%	-3%
O=C(NC12CC3CC(CC(C3)C1)C2)OC1CN2CCC1CC2 (configuration not stated)	-12%	-8%
Nc1n[nH]c(C2CCCCC2)n1	-6%	0%
CCc1c(C)c(C#N)c2nc3ccccc3n2c1NCc1ccco1	-29%	x
CC(=O)NC(c1ccccc1)c1nc(-c2cc3ccccc3o2)cs1 (configuration not stated)	0%	i
N=C1/C(=C\c2ccc(OC(=O)c3ccccc3)cc2)C(=O)N=C2SC(N3CCOCC3)=NN12	8%	-8%
CCNC(=O)C(C)Sc1ccc(Cl)cc1 (configuration not stated)	-3%	-15%
COc1cccc(NC(=O)CN(C)C(=O)c2ccc(-c3ccccc3Cl)o2)c1	-7%	-14%
Cc1ccc(NC(=O)CSc2nc3ccccc3nc2N2CCCC2)cc1	2%	-15%
CCN1CCN(CCCNC(=O)c2csc3c2CCCCC3)CC1	-9%	-15%
CCN(CC(=O)NCc1cccs1)C(=O)c1ccc(S(=O)(=O)Nc2cccc(C)c2C)cc1	-17%	-3%
O=C(CCN1C(=O)S/C(=C\c2cccs2)C1=O)NC1=NCCS1	-18%	-15%
Cc1cccc(CCNC(=O)C2CCCN(S(=O)(=O)c3cccc4nsnc34)C2)c1 (configuration not stated)	-23%	-12%
COC(=O)Cc1[nH]nc2c1C(C1C=CCCC1)C(C#N)=C(N)O2 (configuration not stated)	-21%	x
CSc1cccc(NS(=O)(=O)c2ccc(-c3coc(C)n3)cc2)c1	-18%	-24%
CC(=O)NC1=NN(C(C)=O)C(C)(CS(=O)(=O)c2ccc3ccccc3c2)S1 (configuration not stated)	-2%	x
CC(=O)c1ccc(OCc2cc(C(=O)N(C)Cc3ncc(C)[nH]3)no2)cc1	-6%	i
Cc1ccc2sc(-c3ccc(N)cc3)nc2c1	-4%	-10%
O=c1[nH]ncn1-c1ccc(Br)cc1	-9%	i
CC(C)c1onc(C(=O)NCc2cccs2)c1[N+](=O)[O-]	-10%	i
COC(=O)CCN(C(=O)c1cc(OC)c(OC)c(OC)c1)c1ccccn1	-10%	i
COc1ccc(Cl)cc1NC(=O)C1CCN(S(=O)(=O)c2ccc(F)cc2)CC1	-22%	-22%
COc1ccc(-c2csc(N)n2)cc1	u	14µM*
COc1cc(CNCc2cccs2)ccc1OCC(N)=O	-13%	-17%

Remaining list, next part
smiles	VACV Venus inh	Vaccinia mCherry
COc1ccc(NC(=O)CN(C)C(=O)CCSc2ccc(C)cc2)cc1	-8%	-26%
Cc1ccc(CN2CCNC(=O)C2CC(=O)NCCCn2ncc3ccccc32)o1 (configuration not stated)	5%	-19%
CCOC(=O)c1cnc2c(OC)cccc2c1Nc1cccc(O)c1	-18%	-14%
CCOc1ccc(C2CC(c3c(O)c4ccccc4oc3=O)=NN2c2ccccc2)cc1OC (configuration not stated)	-18%	u
COc1ccc(C(=O)Nc2nnc(C(C)C)s2)cc1OC	-4%[7.34 µM]	-9%[7.34 µM]
COc1ccccc1CNC(=O)c1cc2ccc3ccc(C)[nH]c3c2n1	-5%	-17%
CCCCn1cc(S(=O)(=O)c2ccccc2)c(=O)c2cc(F)c(N3CCC(C)CC3)cc21	-11%	-11%
Cc1ccc(C(=O)N/N=C/c2ccc(-c3cccc(Cl)c3)o2)cn1	-25%	u

2 neighbouring compounds already listed:
smiles	VACV Venus inh	Vaccinia mCherry
CCCCn1cc(S(=O)(=O)c2ccccc2)c(=O)c2cc(F)c(N3CCC(C)CC3)cc21	-11%	-11%
Cc1ccc(C(=O)N/N=C/c2ccc(-c3cccc(Cl)c3)o2)cn1	-25%	u

Further structures follow.
smiles	VACV Venus inh	Vaccinia mCherry
CC(C)(C)NC(=O)C(c1ccc(F)cc1)N(Cc1ccco1)C(=O)CCC(=O)Nc1ccccn1 (configuration not stated)	-9%	-11%
O=C(Nc1ccc(Cl)c(Cl)c1)C1CCCCC1	-10%	9%
O=C(CCNS(=O)(=O)c1ccc(OC(F)(F)F)cc1)N1CCN(S(=O)(=O)c2cccc(F)c2)CC1	-19%	-29%
O=C(NCCCn1ccnc1)c1cc(-c2ccc(Cl)cc2)nc2ccccc12	-18%	x
O=C(COC(=O)c1ccc(Cl)cc1O)NC(=O)C1CCCCC1	-7%	-7%
CCOc1ccc(-c2nc(C#N)c(NCc3ccco3)o2)cc1	-16%	u
Cc1nn(Cc2ccccc2Cl)c(C)c1NC(=O)CCCn1nc([N+](=O)[O-])c(Cl)c1C	-23%	u
O=C1C2C3C=CC(C3)C2C(=O)N1c1cccc(-c2nc3ccccc3o2)c1 (configuration not stated)	-3%	x
CCOC(=O)c1c(NC(=O)COc2ccc3ccc(=O)oc3c2)sc(C(=O)N(C)C)c1C	-6%	-17%
O=C(NCc1ccccc1)c1ccc(CSc2nc3cccnc3n2Cc2ccccc2)cc1	-28%	u
C=C(COC(C)=O)CC1CC(O)[C@]2(C)OC3CC4OC5C[C@]6(C)O[C@]7(C)CCC8OC9C[C@]%10(C)OC%11C(C)=CC(=O)OC%11CC%10OC9C[C@@H](C)C8OC7CC6O[C@]5(C)C/C=C\C4OC3CC2O1 (some centres not stated)	-23%	5%
COC(=O)CCC(=O)Nc1cccc2c(NC(=O)CCC(=O)OC)cccc12	-11%	x
Cc1ccc2nc(C3CCCCC3)c(Cc3ccsc3)n2c1	-15%	-14%
CN(C(=O)C1CCC(=O)N(Cc2ccccc2F)C1)C1CCOCC1 (configuration not stated)	-9%	i
CCCOc1ccc(F)cc1-c1cc(C(=O)NCc2cccc(C(F)(F)F)c2)[nH]n1	-24%	-12%
CC(C)CC(=O)NC(=S)Nc1nc(-c2ccccc2)cs1	-10%	-9%

Next section (four carried over from the part before).
smiles	VACV Venus inh	Vaccinia mCherry
Cc1ccc2nc(C3CCCCC3)c(Cc3ccsc3)n2c1	-15%	-14%
CN(C(=O)C1CCC(=O)N(Cc2ccccc2F)C1)C1CCOCC1 (configuration not stated)	-9%	i
CCCOc1ccc(F)cc1-c1cc(C(=O)NCc2cccc(C(F)(F)F)c2)[nH]n1	-24%	-12%
CC(C)CC(=O)NC(=S)Nc1nc(-c2ccccc2)cs1	-10%	-9%
COc1cccc(/C=C/C(=O)OCC(=O)N2CCCc3ccccc32)c1	-13%	-13%
CCn1ncc([N+](=O)[O-])c1C(=O)Nc1c(C)nn(Cc2ccc(F)cc2)c1C	-15%	-20%
CCNNC(=O)C(O)(c1cccc(C)c1)c1cccc(C)c1	-6%	-18%
Oc1ccc(C[C@@H]2CNCCN2CCC23CC4CC(CC(C4)C2)C3)cc1	-26%	-11%
CCOc1cc(/C=N\NC(=O)c2ccc(NC(=O)C(C)(C)C)cc2)ccc1OC(=O)c1ccc(C)cc1	-6%	-13%
CCOC(=O)CC(NS(=O)(=O)c1ccc(OC)c(C)c1)c1cccc([N+](=O)[O-])c1 (configuration not stated)	-1%	-8%
O=C(Nc1ccc(Cl)cc1)c1ccc2oc(=O)n(Cc3ccccc3)c2c1	-11%	-12%
O=c1c2oc3ccccc3c2n(Cc2ccccc2F)c(=O)n1Cc1ccccc1	-19%	-15%
CCOC(=O)N1CCN(C(=O)c2cc3cc(Br)ccc3oc2=O)CC1	-2%	-14%
CN1CCN(c2oc(-c3ccc(OCc4ccc(Cl)cc4)cc3)nc2C#N)CC1	-14%	-14%
COCCn1c(C)cc(O)c(C(c2ccc(C)cc2)N2CCCCC2)c1=O (configuration not stated)	-8%	-13%
Cc1ccc(S(=O)(=O)N2CCCC2C(=O)NC2CCCCC2)cc1 (configuration not stated)	-22%	x
C/C(=N\N=C1/NC(=O)C(C)S1)c1ccc([N+](=O)[O-])cc1 (configuration not stated)	-12%	-13%
COCCN1C(=O)C(=O)/C(=C(/O)c2ccc(S(=O)(=O)N3CCOCC3)cc2)C1c1ccc(OC)c(OC)c1 (configuration not stated)	-4%	-6%
C[C@@]12CCC=C[C@H]1[C@H](c1ccccc1Br)N(Cc1ccccc1)C2=O	-2%	i
O=C(O)/C(=C/c1ccco1)NC(=O)c1ccc(Br)o1	-6%	-13%
Cc1ccccc1CNc1nc(N)n(-c2ccccc2)n1	-24%	-19%
COc1ccc(NC(=O)C2(C)CCN2Cc2ccc3ccccc3c2)cc1OC (configuration not stated)	-22%	-2%
CCOc1ccc(NC(=O)CSc2nc3ccccc3c(=O)n2CCCC(=O)NCC2CCCO2)cc1 (configuration not stated)	-14%	-12%
CC(C)(C)c1ccc(C(=O)NCc2nnc(SCC(=O)NCC3CCCO3)o2)cc1 (configuration not stated)	-5%	-6%
Cc1cccc(-n2cnc3cc(C(=O)N4CCc5ccccc54)ccc32)c1	-2%	-25%
COc1ccc(-c2nn(CC(=O)NC3CCCC3)c3c2cnc2ccc(F)cc23)cc1	-2%	-5%
CCOC(=O)c1nn(-c2ccccc2Cl)c(=O)cc1OCC(=O)Nc1cccc(OC)c1	-8%	-14%
CCOC(=O)C1=C(C)N=C2SC(C)C(=O)N2C1/C=C/c1ccccc1OC (configuration not stated)	-4%	-15%
O=C(NCc1ccccc1)C(=O)Nc1ccc2nc3n(c(=O)c2c1)CCCCC3	1%	10%
CCS(=O)(=O)N1CCc2cc(C(=O)N3CCN(c4ccccc4OC)CC3)ccc21	-28%	u
Cc1cc(NC(=O)CSc2c[nH]c3ccccc23)no1	-13%	-12%
Cc1ccc(-n2c(C)nnc2SCC(=O)N2CCc3ccccc3C2)cc1	-22%	-1%
Nc1cc(Cl)ccc1N1CCOCC1	-14%	-21%
CCOc1ccc(N=Nc2c(=O)[nH]n3c(=O)c4c([nH]c23)CCCC4)cc1	-11%	-9%
